# AmpC inh no det: blocks E. coli AmpC beta-lactamase in absence of detergent; P00811; AmpC nitrocefin hydrolysis, absorbance 480 nm, no detergent; potencies from a single point are estimates; AID 585; hit rate 1.8% among 71,000; Potency, µM (doses to about 28.7 µM), inactives show at the highest dose activity change, negative = inhibition; active = falling curve, for most hits resting on a single point; inconclusive = weak or doubtful change; inactive = flat or rising curve; also: % of control where 0% means no effect; about half of the hits show no inhibition at the top dose; a quarter of the inactives give rising signals
# Target sequence (P00811 whole entry, looked up): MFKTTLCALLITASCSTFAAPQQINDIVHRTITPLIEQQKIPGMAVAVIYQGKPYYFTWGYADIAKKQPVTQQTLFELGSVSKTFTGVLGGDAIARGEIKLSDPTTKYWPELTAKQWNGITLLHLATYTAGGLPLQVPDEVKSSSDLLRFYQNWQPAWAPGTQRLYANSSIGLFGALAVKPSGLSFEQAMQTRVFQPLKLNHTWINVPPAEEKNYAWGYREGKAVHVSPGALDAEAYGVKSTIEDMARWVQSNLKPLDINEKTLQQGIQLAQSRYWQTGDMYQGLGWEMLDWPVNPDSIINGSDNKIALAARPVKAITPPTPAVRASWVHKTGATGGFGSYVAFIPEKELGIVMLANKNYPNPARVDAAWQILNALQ
#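 AmpC, 20 mM phosphate pH 7.0; 15 min cpd preinc, RT; start with nitrocefin (800 uM stock); A480 kinetic read, 20 s intervals, 4 min. No-enzyme wells = negative control.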
# * marks the source's active call; other numbers are inactive results; ? = inconclusive; [ ] = dose if it differs, or a comment. Potency is read from the fitted curve at half-maximal effect. Only part of the results is shown. The share of hits here may be higher or lower than overall.
SMILES,AmpC inh no det
COc1ccccc1N1CCN(Cc2nc(N)nc(Nc3ccc(C)c(Cl)c3)n2)CC1,119%
Cc1ccccc1-n1c(C)nnc1SCC(=O)N1CC(=O)Nc2ccccc21,0%
CS(=O)(=O)N(Cc1ccccc1)c1ccc(C(=O)NC2CCCCC2O)cc1 (centres undefined),51%
CCOc1ccccc1NC(=O)CSc1nnc(-c2ccccn2)n1Cc1ccco1,-21%
CN(CC(=O)NCCC1=CCCCC1)S(=O)(=O)c1ccc2c(c1)c(=O)n(C)c(=O)n2C,33%
O=C(c1cccc(F)c1)N1CCC[C@@]2(CCN(c3ccccc3)C2)C1,10%
COc1ccccc1-c1nnc(SCC(=O)O)n1C,8%
c1ccc(C(CN2CCOCC2)c2ccccc2)cc1,19%
O=C(CCN1CCN(C/C=C/c2ccccc2)CC1)Nc1ccccc1,73%
NC(=O)C1CCN(C(=O)c2ccc(C(F)(F)F)cc2)CC1,11%
Clc1ccc(Cn2ncc3c(NCc4cccnc4)ncnc32)cc1,53%
CCC(=O)Nc1cccc(NC(=O)CSc2nnc(C3CC3)n2C)c1,-1%
CC(=O)Oc1ccc(CCC(C)OC(C)=O)cc1 (centres undefined),4%
CC1(C)OC(=O)C(=CNn2cnc3ccccc3c2=O)C(=O)O1,-10%
CC(=O)Oc1ccc2occ(C(=O)c3cccs3)c2c1,3%
CCN(CC)C(=O)c1ccc(O)c(OC)c1,1%[12.8 µM]
CC(=O)N(c1ccc2oc(=O)sc2c1)S(=O)(=O)c1cccs1,4%
CC[C@H]1CN(C)[C@H]2Cc3c([nH]c4ccccc34)C(=O)C[C@H]1[C@H]2C(=O)OC,-3%[5.75 µM]
Fc1ccc(Cn2nnnc2CN2CCc3ccccc3C2)cc1,38%
Cc1ccnc(NC(=O)CCc2c(C)nc3ncnn3c2C)c1,-6%
COc1cc(S(=O)(=O)NC2CCCC2)ccc1Cl,8%
COc1ccc(CN(C(=O)c2oc3ccccc3c2C)C2CCS(=O)(=O)C2)cc1 (centres undefined),96%
Cc1cccc(OCc2nnc(SCC(=O)Nc3sc(C)c(C)c3C#N)n2C)c1,-7%
COc1cc(C)c(N)cc1C(C)C,-8%
CC(=O)[C@H]([C@@H](c1ccccc1)N1CCOCC1)N1CCOCC1,-6%[5.75 µM]
COc1ccccc1C1c2c(oc3ccc(Cl)cc3c2=O)C(=O)N1c1cc(C)on1 (centres undefined),20%
Cn1c(Cn2c(=O)sc3ccccc32)nnc1SCc1ccc(F)cc1,7%
O=C(CSc1nc2sc3c(c2c(=O)n1Cc1ccco1)CCC3)N1CCc2ccccc21,-14%
Cc1ccc(-c2nc(CS(=O)CC(=O)NCCN(CC(C)C)CC(C)C)c(C)o2)cc1 (centres undefined),92%
CCOC(=O)c1cnn(-c2nc(C)nc3sc4c(c23)CCC4)c1N,72%
Cc1c(S(=O)(=O)O)ccc(N=Nc2c(O)c(C(=O)O)cc3ccccc23)c1Cl,-12%[5.75 µM]
CC(C)(O)P(C)(=O)c1ccccc1 (centres undefined),1%
CCCN1C2=C(C(=O)CCC2)C(c2ccc(O)c(Br)c2)C2=C1CCCC2=O,-15%
c1ccc(-c2noc(COc3ccc4c(c3)OCO4)n2)cc1,-22%
CCCc1nc(SCC(=O)N2CCC(Cc3ccccc3)CC2)c2c(=O)n(C)c(=O)n(C)c2n1,18%
CC1=CC(C)(C)N=C(NC#N)N1,5%
COc1ccccc1CN1CC[C@@]2(CCCN(C(C)=O)C2)C1,11%
COc1ccc(CC(=O)OCc2cc3ccccc3[nH]c2=O)cc1,-9%
COc1ccccc1N=c1oc2c(OC)cccc2cc1C(=O)NCc1ccco1,27%
CCOC(=O)c1[nH]c(C)c(C(=O)NC)c1C,5%
COc1cccc(CNC(=O)C2CCN(S(=O)(=O)c3ccc4c(c3)CCC(=O)N4)CC2)c1,11%
O=S(=O)(c1ccc(NC2CCCc3ccccc32)nc1)N1CCOCC1 (centres undefined),47%
c1csc(CNc2ccnc(-c3ccoc3)n2)c1,25%
CCc1ccc(NC(=O)C(C)Nc2ccc(S(=O)(=O)NC(C)=O)cc2)cc1 (centres undefined),-6%
Cc1cc(C)n(C(=O)c2ccc(S(=O)(=O)NCC3CCCO3)cc2)n1 (centres undefined),31%
COc1ccc(S(=O)(=O)Cc2ccc(C(=O)N3CCN(C(=O)c4ccco4)CC3)o2)cc1,40%
COc1ccccc1C(c1nnnn1CS(=O)(=O)c1ccc(C)cc1)N1CCSCC1 (centres undefined),46%
COCCn1c(C)cc(C(=O)COC(=O)CCN2C(=O)c3ccccc3C2=O)c1C,66%
c1ccc(-c2nnc(N3CCOCC3)nc2-c2ccccc2)cc1,79%
OCc1cc(CO)c(O)c(CCc2ccccc2)n1,-1%
O=C1CCCc2c1cc(C(=O)Nc1ccc(Cl)cn1)c(=O)n2-c1ccccc1,104%
CCN(CC)c1nc(C#N)nc(N(CC)CC)n1,-2%
O=C1c2ccccc2C(Nc2cccc(C(F)(F)F)c2)N1Cc1ccco1 (centres undefined),18%
CC(=O)c1ccccc1OC(=O)c1ccco1,5%
CN1CCN(CCC(=O)Nc2ccc(OCc3ccccc3)cc2)CC1,47%
Cc1nn(C(=O)c2ccc3c(c2)OCO3)c(N)c1-c1ccccc1,5%
COCC(=O)N1CCC2(CCCN(C(=O)Nc3ccc(OC)cc3)C2)CC1,17%
Cn1cnnc1SCC(=O)N1c2ccccc2-c2c(ssc2=S)C1(C)C,31%
O=C(CCSCCC(=O)N1CCCC1)N1CCCC1,31%
Brc1ccc(-c2nnc(-c3ccc4c(c3)OCO4)o2)o1,-6%
# Continued.
SMILES,AmpC inh no det
CCOC(=O)c1c(NC(=O)COC)sc(C(C)=O)c1C,72%
CCn1c2ccccc2c2nnc(NCCCO)nc21,0%[5.75 µM]
COc1cccc(Cn2c(=O)c(-c3cn(C)c4ccccc34)nc3cnc(N4CCOCC4)nc32)c1,5%
CCOC(=O)c1sc2nc3n(c(=O)c2c1C)CCCCC3,23%
COC(=O)CN1C(=O)CC(C)(C)Sc2ccccc21,27%
Nc1ccc(-c2cnc(-c3ccc(N)cc3)nc2)cc1,5%
Cc1ccccc1N1C(=O)c2cc(S(N)(=O)=O)c(Cl)cc2N[C@H]1C,-8%[12.8 µM]
Cc1ccc(-c2nc(NC(=O)CSc3nnnn3-c3ccccc3)ns2)cc1,-22%
CCCNc1oc(-c2cccc3ccccc23)nc1C#N,9%
Cc1nc2oc3c(NCc4ccccc4)ncnc3c2c2c1COC(C)(C)C2,101%
Cn1c(SCC(=O)N2CCOCC2)nc2cccnc21,-16%
Cc1c(Cl)cccc1N1C(=O)CC(N(O)c2ccccc2)C1=O (centres undefined),-4%
COc1ccc(C(=O)Nc2cccc(N(C)S(C)(=O)=O)c2)cc1OC,0%
Cc1cc(C)n(-c2nc3ccccc3c(=O)n2OCC(=O)Nc2c(C)cccc2C)n1,78%
O=C(O)COc1c(Cl)cc(Cl)c2cccnc12,-14%[5.75 µM]
COc1ccccc1N1CCN(C(=O)Cn2nnc(-c3cccs3)n2)CC1,72%
Cc1nc2nc(COc3ccccc3)[nH]n2c(=O)c1Cc1ccccc1,-21%
c1ccc(N2CC3(CCNCC3)C2)nc1,29%
Cc1nc2ncnn2c(Nc2ccc3c(c2)OCO3)c1Cc1ccccc1,55%
Cc1nc2ccccc2c2oc(C(=O)NCCN3CCCCC3C)cc12 (centres undefined),4%
CCOC(=O)c1c(N)c(C#N)cn1-c1ccccc1,2%
CCOc1cc2[nH]c(=S)n(CCCN3CCCC3=O)c(=O)c2cc1OCC,29%
Cc1ccc(S(=O)(=O)c2cc3c(=O)n4cc(C)ccc4nc3n(CC3CCCO3)c2=N)cc1 (centres undefined),6%
COc1ccc(-c2nc3c(n2O)CCC/C3=N\O)cc1,4%
CC(=O)NCC(=O)NC(C(=O)Nc1ccc2c(c1)OCCO2)c1ccc(C)cc1 (centres undefined),33%
CC(=O)OC(C)(C)N=Nc1ccc(Br)cc1,7%[5.75 µM]
Cc1ccc2[nH]c(=O)c(CNC(C)C)cc2c1,-3%
Cc1nnc(SCC(=O)c2c(N)n(C)c(=O)n(C)c2=O)n1Cc1ccccc1,11%
OC(CNCc1ccco1)Cn1c2ccccc2c2ccccc21 (centres undefined),40%
O=C1NC(c2cccnc2)C(C(=O)c2cccs2)C(O)(C(F)(F)F)N1 (centres undefined),11%
O=C(c1ccccc1)c1cccn1CC(=O)N1CCCCCC1,7%
COCCCNC(=O)CCN1C(=O)COc2ccccc21,-9%
COc1ccc(CN(C(=O)CSc2nnc(-c3ccccc3F)o2)c2ccc(F)cc2)cc1,8%
CC1(C)CC(=O)C2=C(C1)Oc1ncn(CCO)c(=N)c1C2c1ccccc1 (centres undefined),16%
COC(=O)c1sccc1NC(=O)c1ccc2c(c1)OCO2,-8%
CCCCCCn1c(N2CCC(C)CC2)nc2c1c(=O)[nH]c(=O)n2C,32%
O=C(C1CCN(S(=O)(=O)c2ccc(Br)s2)CC1)N1CCc2ccccc21,-5%
O=C(O)Cn1cc(C(=O)c2ccccc2)c2ccccc21,-2%
Cc1cc(C)n(-c2ccc(C(=O)OCC(=O)Nc3ccc(S(=O)(=O)N4CCOCC4)cc3)cc2)n1,105%
Cc1cc(Nc2ccc(F)cc2Cl)n2nc(C)nc2n1,10%
Cc1ccnc(NC(=O)C2CCCN(S(=O)(=O)c3cnc[nH]3)C2)c1 (centres undefined),-2%
Cc1cc(C(=O)Nn2cnnc2)cs1,-14%
COC(=O)c1cccc(N2C(=O)C(Cl)=C(N3CCOCC3)C2=O)c1,4%
CCn1c(SCC(N)=O)nnc1-c1ccco1,-7%
c1ccc(-n2c(SCc3nc(-c4cccs4)no3)nnc2-c2ccco2)cc1,18%
COc1ccc2nc(NC(=O)CSc3nnnn3C3CCCCC3)sc2c1,42%
CCCc1nc(SCc2cccnc2)c2c(=O)n(C)c(=O)n(C)c2n1,27%
COc1ccc(-c2nnc(SC(C)C#N)o2)cc1 (centres undefined),8%
Cc1ccccc1N(CC(=O)NCCSCc1ccco1)S(C)(=O)=O,78%
CC(=O)Oc1cccc(/C=c2\sc3nc(-c4ccco4)nn3c2=O)c1,26%
COc1ccc(C(CCc2ccc(C)o2)NC(=O)Nc2ccc(OC)cc2OC)cc1 (centres undefined),32%
CC(C)(C)C(=O)[C@H]([C@@H](c1ccccc1)N1CCOCC1)N1CCOCC1,9%[5.75 µM]
CC1(C)CC(=O)c2cnc(NC(=O)CCc3ccccc3)nc2C1,-10%
CCOC(=O)c1ccc(NC(=O)c2nn(CC)cc2Br)cc1,19%
COc1cccc(N2CCN(C(=O)c3ccc4nc(N5CCCCC5)sc4c3)CC2)c1,111%
COC(=O)c1ccc(C(C(=O)NCc2ccccc2)N(Cc2ccco2)C(=O)c2cnccn2)cc1 (centres undefined),101%
COc1ccc(CNC2=CC(=O)CC(C)(C)C2)cc1,7%
COc1ccc(Nc2cc(C)nc3nc(C)nn23)c(OC)c1,9%
CCOC(=O)C1=C(C)N=C(/N=C/N(C)C)SC1c1ccccc1 (centres undefined),15%
CC(=O)c1c(C)[nH]c(C(=O)NCCc2ccccc2)c1C,-4%
# Next part.
SMILES,AmpC inh no det
O=C1c2oc3ccc(Br)cc3c(=O)c2C(c2cccnc2)N1Cc1ccco1 (centres undefined),0%
O=C(CSCC(=O)OCn1nnc2ccccc2c1=O)Nc1ccc(Cl)cc1,0%
COC(=O)c1ccc(C2NC(=O)NC(C)=C2C(=O)N(C)C)cc1 (centres undefined),-3%
Cc1cc(N)c2ccccc2[n+]1CCCCCCCCCC[n+]1c(C)cc(N)c2ccccc21,?
COc1ccccc1N1CCN(C(=O)c2ccc(Br)s2)CC1,50%
Nc1nc(CN2CCN(c3ccc(F)cc3)CC2)nc(N2CCCc3ccccc32)n1,98%
COC(=O)c1cc(C(=O)OC)cc(N2C(=O)CC(Sc3nc(C)cc(C)n3)C2=O)c1 (centres undefined),57%
CC(C)NC(=O)c1n[nH]c(=O)c2ccccc12,-4%
O=C(CSc1nc2c(cnn2-c2ccccc2)c(=O)[nH]1)N1CCOCC1,-5%
Cc1cnc(C(=O)OCC(=O)Nc2cccc(Cl)c2)cn1,1%
CC1CCN(C(=O)CN(CCc2ccccc2)S(C)(=O)=O)CC1,36%
O=S(=O)(C/C(=C/CO)S(=O)(=O)c1ccccc1)c1ccccc1,-9%
CCCCOCCCNC(=O)Cc1ccccc1OC,34%
CCN(CC)c1ccc(NS(=O)(=O)c2ccc3c(c2)oc(=O)n3C)c(C)c1,18%
CCOP(=S)(OCC)Oc1nc(Cl)c(Cl)cc1Cl,-12%

# Of the compounds above, these contain a thiophene ring, fused or not:
SMILES,AmpC inh no det
CC(=O)Oc1ccc2occ(C(=O)c3cccs3)c2c1,3%
CC(=O)N(c1ccc2oc(=O)sc2c1)S(=O)(=O)c1cccs1,4%
Cc1cccc(OCc2nnc(SCC(=O)Nc3sc(C)c(C)c3C#N)n2C)c1,-7%
O=C(CSc1nc2sc3c(c2c(=O)n1Cc1ccco1)CCC3)N1CCc2ccccc21,-14%
CCOC(=O)c1cnn(-c2nc(C)nc3sc4c(c23)CCC4)c1N,72%
c1csc(CNc2ccnc(-c3ccoc3)n2)c1,25%
CCOC(=O)c1c(NC(=O)COC)sc(C(C)=O)c1C,72%
CCOC(=O)c1sc2nc3n(c(=O)c2c1C)CCCCC3,23%
COc1ccccc1N1CCN(C(=O)Cn2nnc(-c3cccs3)n2)CC1,72%
O=C1NC(c2cccnc2)C(C(=O)c2cccs2)C(O)(C(F)(F)F)N1 (centres undefined),11%
COC(=O)c1sccc1NC(=O)c1ccc2c(c1)OCO2,-8%
O=C(C1CCN(S(=O)(=O)c2ccc(Br)s2)CC1)N1CCc2ccccc21,-5%
Cc1cc(C(=O)Nn2cnnc2)cs1,-14%
c1ccc(-n2c(SCc3nc(-c4cccs4)no3)nnc2-c2ccco2)cc1,18%
COc1ccccc1N1CCN(C(=O)c2ccc(Br)s2)CC1,50%
